From PubChem BioAssay
Dynein cargo inh = dynein cargo transport inhibition | z-score, hits read low | 0.47% of 220,000 active | 3617.4 mouse cells, GR-EGFP nuclear translocation imaging; test concentration mostly 20 µM; stimulated with dexamethasone, 1 µM; hits give low values;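 active means plate z-score of nuclear minus cytoplasmic receptor signal below a set negative limit, without overly bright fluorescence or cell loss, cut at about -3.5 in these data, passing the limit was not always enough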;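 further: z-score of nuclear minus cytoplasmic ring GR-EGFP intensity difference per well; some compounds called inactive have numbers as strong as hits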
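Buffer or medium: tet-free medium with charcoal-stripped serum / Also added: dexamethasone agonist, 1.0 µM final, for 30 min / Timing: induction 48 h, compound 1 h, agonist 30 min / Measured by: high-content fluorescence imaging after fixation / Read-out: nuclear-to-cytoplasmic GR-EGFP distribution per well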
LYP phosphatase = PTPN22 lymphoid phosphatase activity blockers – biochemical, fluorescence intensity, uHTS (AID 1779); inhibition, % at 11.5 µM; hits with a dose series show IC50 in µM; 0.054% of 290,000 active; recombinant LYP phosphatase, fluorescence intensity; higher % means a stronger effect; in the data active means inhibition above about 50%;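 further: plate controls were vehicle with enzyme for no effect and no enzyme for full effect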
P. falciparum M1AAP = P. falciparum M1AAP inhibitors, biochemical, fluorogenic H-Leu-NHMec substrate, 1536-well (AID 1445); recombinant M1AAP, H-Leu-NHMec fluorogenic kinetic assay; higher % means a stronger effect; inhibition, % at 30 µM, or IC50 in µM where a hit was titrated; 0.42% of 220,000 active;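 active means primary inhibition above the hit cutoff, then over 50% inhibition at one or more dose response concentrations, cut at about 23% in these data, passing the limit was not always enough; inconclusive means conflicting primary data, or primary hits not chosen for dose response; inactive means low primary inhibition, or under 50% at every dose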;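 further: plate controls were DMSO full reaction for no effect and no enzyme background for full effect; strong numbers were not always called active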
AID2073 = inhibitors of Mint1-CaV2.2 protein interaction, biochemical, HTRF (AID 2073) | HTRF protein-protein interaction, Mint1-CaV2.2; higher % means a stronger effect | inhibition, % at 20 µM, or IC50 in µM where a hit was titrated | 0.19% of 290,000 active; in the data active means inhibition mostly above about 51%, no sharp cut-off; inconclusive means no clear call, values can overlap the other calls; inactive means mostly below about 53%; further: some results filed as inactive read as strong as hits
XIAP antagonists = XIAP antagonists, biochemical, IAP family, fluorescence polarization (AID 1018); displacement, % at 20 µM, or IC50 in µM where a hit was titrated; XIAP BIR domain, fluorescence polarization peptide displacement; higher % means a stronger effect; 0.007% of 200,000 active; in the data active means displacement above about 50%; further: a part of the inactive calls stands beside numbers as strong as those of hits
P. falciparum M17LAP = P. falciparum M17LAP inhibitors, primary screen, biochemical, fluorogenic H-Leu-NHMec substrate, 1536-well (AID 1619) | inhibition, % at 30 µM; hits with a dose series show IC50 in µM | 0.38% of 220,000 active | recombinant M17LAP, H-Leu-NHMec fluorogenic kinetic assay; higher % means a stronger effect;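 active means compound inhibiting the enzyme by more than half at any dose during confirmatory dose-response retesting; inconclusive means strong single-dose inhibitors picked by rank but not retested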;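 further: plate controls were full reaction with DMSO carrier for no effect and no enzyme background for full effect; strong numbers were not always called active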
Siah-1 displacement = blockers of Siah-1 interaction with plectin peptide – biochemical, fluorescence polarization, rhodamine-plectin, uHTS, primary screen (AID 1817); Siah-1 / rhodamine-plectin peptide fluorescence polarization; higher % means a stronger effect; one-dose displacement, % at 20 µM; IC50 in µM for titrated hits; 0.02% of 290,000 active;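 active means displacement of at least 50% at 20 µM, with a fluorescence ratio check between 0.3 and a set limit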;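 further: plate controls were Siah plus tracer with DMSO for no effect and tracer alone without Siah for full effect; strong numbers were not always called active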
Dynein cargo inh cytoplasmic EGFP = further read-out of Dynein cargo inh, marked with its call; z-score; measured here: cytoplasmic GR-EGFP intensity; hits give high values
Dynein cargo inh nuclear GR-EGFP = also measured in Dynein cargo inh; calls as there; z-score; measured here: nuclear GR-EGFP intensity;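 lower value marks the stronger effect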
Dynein cargo inh cell count = second read-out of Dynein cargo inh, no call of its own (marks repeat the call); z-score; measured here: cell count per field
Starred values were filed as active, the others as inactive; ? = inconclusive. Not all compounds are listed; count on the stated rates, not on these rows.

Short forms – A = Dynein cargo inh; B = Dynein cargo inh cytoplasmic EGFP; C = Dynein cargo inh nuclear GR-EGFP; D = Dynein cargo inh cell count; E = LYP phosphatase; F = P. falciparum M1AAP; G = AID2073; H = XIAP antagonists; I = P. falciparum M17LAP; J = Siah-1 displacement
1	Cn1c(CN2CCOCC2)nnc1SCC(N)=O
  A: 0.44	B: -0.082	C: 0.36	D: -0.21	E: 0%	F: -1%	G: 4%	H: -1.1%	I: -1%	J: 0%

2	CCOc1c(Cl)cc(Cl)cc1CNCCNCCO
  A: -0.23	B: -0.061	C: 0.33	D: 0.51	E: -2%	F: 2%	G: 13%	H: -4.4%	I: 0%	J: 3%

3	CCOc1ccc(-c2c[n+](=O)c3c(n2[O-])CCCC3)c(OCC)c1
  A: -0.45	B: -0.2	C: -0.89	D: 0.95	E: -8%	F: 4%	G: 20%	H: -3.3%	I: 17%	J: 8%

4	COc1ccc(C(=O)Nc2cc(Cl)ccc2OC(=O)c2ccc(OC)cc2)cc1
  A: -0.22	B: -0.091	C: 0.45	D: 0.3	E: 1%	F: 10%	G: 8%	H: 81%	I: 10%	J: -5%

5	OCCNC1=NCCN1
  A: -0.9	B: -0.32	C: -0.4	D: 0.24	E: -3%	F: ?	G: -5%	H: -22%	I: -5%	J: -1%

6	O=C(CN1C(=O)C2C3C=CC(C3)C2C1=O)Nc1ccc(C(=O)O)cc1 (stereo unspecified)
  A: 0.42	B: -0.19	C: 0.8	D: 0.5	E: -3%	F: 15%	G: 3%	H: -1.4%	I: 8%	J: 1%

7	Cc1nn(Cc2c(Cl)cccc2Cl)c(C)c1NC(=O)c1cn(-c2ccccc2)nc1-c1ccccc1
  A: 1	B: 0.26	C: 0.52	D: -0.53	E: -5%	F: 0%	G: -4%	H: -3.3%	I: 2%	J: -3%

8	CCOC(=O)CCCNC(=O)c1cncc(Br)c1
  A: -1.4	B: -0.3	C: -0.56	D: 0.89	E: -10%	F: 2%	G: 0%	H: -2.5%	I: 12%	J: 3%

9	COc1ccc(NC(=O)N(C2CCCCC2)C(C)c2cccnc2)c(OC)c1 (stereo unspecified)
  A: 3.3	B: -0.13	C: 1.2	D: -1.6	E: -8%	F: 11%	G: -29%	H: 0.4%	I: 10%	J: 2%

10	CC1CCN(C(=O)C(NS(=O)(=O)c2cccc3nsnc23)c2ccccc2)CC1 (stereo unspecified)
  A: -0.17	B: -0.29	C: 0.2	D: -0.0023	E: 2%	F: 9%	G: 0%	H: -5.5%	I: -4%	J: 4%

11	Cc1cc(C)n(-c2nc3c(c(=O)[nH]c(=O)n3C)n2C(C)C)n1
  A: -0.99	B: -0.24	C: -0.49	D: 1.1	E: -13%	F: 9%	G: -7%	H: -2.5%	I: -4%	J: -7%

12	COc1ccc(Cl)cc1C(=O)N1CCN(c2ccccn2)CC1
  A: 0.71	B: -0.23	C: -0.61	D: -0.15	E: -8%	F: 8%	G: 0%	H: -2.2%	I: 9%	J: -2%

13	Cc1nn(CCOc2ccccc2)c(=O)n1-c1ccc(F)cc1
  A: -0.075	B: -0.24	C: -0.39	D: 0.82	E: -10%	F: -9%	G: -3%	H: -7.0%	I: 2%	J: 2%

14	O=C(Nc1cccc(C(F)(F)F)c1)C1CCCN(S(=O)(=O)c2cnc[nH]2)C1 (stereo unspecified)
  A: -0.21	B: -0.27	C: 0.11	D: -0.6	E: -2%	F: 1%	G: -1%	H: -4.8%	I: -9%	J: 2%

15	CCOc1ccc(/C=N/NC(=O)COc2ccccc2-c2ccccc2)cc1
  A: -1.3	B: -0.18	C: -0.71	D: 0.63	E: 2%	F: 8%	G: -4%	H: -2.6%	I: 2%	J: 2%

16	Cc1ccc(C(=O)C(OC(=O)CCC(=O)Nc2cccc(C)c2)c2ccccc2)cc1 (stereo unspecified)
  A: 0.66	B: -0.23	C: 0.0087	D: 0.35	E: 3%	F: 3%	G: 3%	H: -0.7%	I: -9%	J: 0%

17	O=C1CSC(c2ccccn2)N1c1ccccc1 (stereo unspecified)
  A: -1.2	B: -0.27	C: -0.46	D: 0.4	E: 0%	F: 6%	G: -3%	H: 1.8%	I: 4%	J: -2%

18	CC(C)CN(CC(C)C)S(=O)(=O)N1CCC(C(=O)NCc2ccc(F)cc2)CC1
  A: -0.53	B: -0.31	C: -0.11	D: 0.85	E: 1%	F: 7%	G: 3%	H: -2.8%	I: -6%	J: 5%

19	Cc1cc(C)c2c(N)c(C(=O)c3ccccc3)oc2n1
  A: 0.3	B: -0.22	C: 0.08	D: -0.066	E: -6%	F: 5%	G: 6%	H: -4.1%	I: 8%	J: -4%

20	CCOC(=O)c1cnc2cc(-c3ccc(C)cc3)nn2c1-c1ccccc1
  A: -0.14	B: -0.2	C: -0.92	D: -0.45	E: -2%	F: 3%	G: 11%	H: -0.6%	I: -3%	J: -3%

21	COc1ccc2[nH]c3nc(SCC(=O)NNC(=O)c4ccc(OC)c(OC)c4)nnc3c2c1
  A: -1.3	B: -0.12	C: -0.12	D: -0.24	E: -3%	F: 7%	G: 10%	H: -1.7%	I: 7%	J: 8%

22	CCOC(=O)C1(N(CC)CC)Sc2cc(C)ccc2NC1=O (stereo unspecified)
  A: -0.72	B: -0.084	C: -0.35	D: 0.65	E: -5%	F: 6%	G: -10%	H: 1.5%	I: 1%	J: 1%

23	O=C(NCC1CCCO1)c1cccc(F)c1 (stereo unspecified)
  A: -0.63	B: -0.21	C: -0.94	D: 0.31	E: -10%	F: 1%	G: 1%	H: -10%	I: 3%	J: 2%

24	C=CCn1c(SCC(=O)N2CC(=O)Nc3ccccc32)nc2scc(-c3ccccc3)c2c1=O
  A: -0.93	B: -0.021	C: -1	D: -0.34	E: 2%	F: 10%	G: 8%	H: -4.8%	I: -1%	J: -3%

25	CCC(C)NC(=O)C(NS(=O)(=O)c1cccc2nsnc12)c1ccccc1 (stereo unspecified)
  A: 0.0091	B: -0.26	C: 0.28	D: 0.57	E: -2%	F: 3%	G: -2%	H: -8.2%	I: 5%	J: 5%

26	CC1CC(C)CN(Cc2nc(N)nc(Nc3ccccc3)n2)C1 (stereo unspecified)
  A: 1	B: -0.22	C: -0.53	D: -0.26	E: -4%	F: 0%	G: 12%	H: -2.7%	I: -1%	J: -1%

27	COc1ccc(-n2nc([N+](=O)[O-])c(=NCCc3ccc(Cl)cc3)n2O)cc1
  A: 0.78	B: -0.16	C: -0.062	D: -0.22	E: 0%	F: 3%	G: 3%	H: -3.0%	I: -4%	J: 5%

28	O=C(O)c1cc(S(=O)(=O)NCC2CCCO2)ccc1Cl (stereo unspecified)
  A: -0.53	B: -0.23	C: -0.34	D: 1.1	E: -4%	F: 5%	G: -4%	H: 1.8%	I: -2%	J: 1%

2 of the compounds above, with two lines to a compound:
Fields: Dynein cargo inh, Dynein cargo inh cytoplasmic EGFP, Dynein cargo inh nuclear GR-EGFP, Dynein cargo inh cell count, LYP phosphatase, P. falciparum M1AAP, AID2073, XIAP antagonists, P. falciparum M17LAP, Siah-1 displacement
19: Cc1cc(C)c2c(N)c(C(=O)c3ccccc3)oc2n1
  0.3, -0.22, 0.08, -0.066, -6%, 5%, 6%, -4.1%, 8%, -4%
20: CCOC(=O)c1cnc2cc(-c3ccc(C)cc3)nn2c1-c1ccccc1
  -0.14, -0.2, -0.92, -0.45, -2%, 3%, 11%, -0.6%, -3%, -3%

Reformatted with values under each structure: five of the compounds above.
Order of values: Dynein cargo inh, Dynein cargo inh cytoplasmic EGFP, Dynein cargo inh nuclear GR-EGFP, Dynein cargo inh cell count, LYP phosphatase, P. falciparum M1AAP, AID2073, XIAP antagonists, P. falciparum M17LAP, Siah-1 displacement
9) COc1ccc(NC(=O)N(C2CCCCC2)C(C)c2cccnc2)c(OC)c1 (stereo unspecified)
  3.3, -0.13, 1.2, -1.6, -8%, 11%, -29%, 0.4%, 10%, 2%
26) CC1CC(C)CN(Cc2nc(N)nc(Nc3ccccc3)n2)C1 (stereo unspecified)
  1, -0.22, -0.53, -0.26, -4%, 0%, 12%, -2.7%, -1%, -1%
12) COc1ccc(Cl)cc1C(=O)N1CCN(c2ccccn2)CC1
  0.71, -0.23, -0.61, -0.15, -8%, 8%, 0%, -2.2%, 9%, -2%
28) O=C(O)c1cc(S(=O)(=O)NCC2CCCO2)ccc1Cl (stereo unspecified)
  -0.53, -0.23, -0.34, 1.1, -4%, 5%, -4%, 1.8%, -2%, 1%
20) CCOC(=O)c1cnc2cc(-c3ccc(C)cc3)nn2c1-c1ccccc1
  -0.14, -0.2, -0.92, -0.45, -2%, 3%, 11%, -0.6%, -3%, -3%
